High-throughput results deposited in PubChem BioAssay by Fisher Drug Discovery Resource Center.
NPYLR7 agonist – agonists of mosquito NPYLR7 receptor, primary screen, cell-based, Aedes aegypti, calcium fluorescence, mosquito biting behavior; activation, % at 10 µM; HEK293T NPYLR7/Galpha15, GCaMP6s calcium fluorescence; 0.15% of 270,000 active; Aedes aegypti neuropeptide Y-like receptor 7 (NPYLR7); in the data active means activation above about 40%;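 further: 0% = vehicle and 100% = reference agonist at the receptor; some compounds past the cut are filed as inactive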
NPYLR7 agonist max-min – recorded beside NPYLR7 agonist, whose call it bears; activation, %; measured here: Max-Min RFU normalised activation; some inactives read as strong as hits;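 span of the calcium signal over five minutes; 0% = vehicle and 100% = native peptide agonist; compound fluorescence can raise it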
An asterisk follows results filed as active; & = joins results of further samples.

SMILES | NPYLR7 agonist | NPYLR7 agonist max-min
COc1ccc2c(c1)OC[C@@H]1CN(CCO)C(=O)CCN(C(=O)Cc3cccs3)[C@H]21 | 22 | 26
CCc1ccc(-c2ccc(SCC(=O)N3CCCC3)nn2)cc1 | 1 | 0
CCCCN(C)Cc1c(O)ccc2c(=O)c(Oc3ccccc3Br)c(C(F)(F)F)oc12 | 1 | -1
O=C(Cc1cc(-c2cc3ccccc3o2)on1)NCCCc1ccccc1 | 0 | 3
CN(C)CC(C)(C)CNC(=O)C1CCN(c2cc(Nc3ccccc3)nc(N)n2)CC1 | 1 | 7
OC(CCN1CCOCC1)c1cccc(C(F)(F)F)c1 (stereo not given) | 23 | 12
COc1cccc(-c2cc(C(=O)N3CCN(c4cccc(Cl)c4)CC3)nc3cc(-c4ccccc4)nn23)c1 | -5 | 6
Cc1ccc(CN(Cc2ccc3c(c2)OCO3)C(=O)CN(C(=O)Nc2ccc(Br)cc2)C(C)C)o1 | 14 | 9
CCCN(C(=O)c1ccn(C)c(=O)c1)C1CC(OCC)C1(C)C (stereo not given) | 2 | 1
CC(C)c1ccccc1OC1CC2CCC(C1)N2C(=O)c1ccc(CSc2c(F)c(F)cc(F)c2F)cc1 (stereo not given) | 14 | -1
COCCCNC(=O)CN1C(=O)COc2ccc(C(=O)COc3ccc(C(C)(C)C)cc3)cc21 | 4 | 4
CCN(CC)S(=O)(=O)c1ccc(OC)c(N2CCN(C(=O)c3ccc(F)cc3F)CC2)c1 | 0 | -7
CC(NS(=O)(=O)c1ccc2c(c1)CCC2)(C(=O)O)C1CC1 (stereo not given) | 1 | 1
COCCCN(CC(=O)N(CCc1c[nH]c2ccccc12)Cc1ccc(C(F)(F)F)cc1)C(=O)CCc1ccccc1 | 2 | 8
COc1ccccc1NC(=O)Nc1c(C)nc2ccc(C)cn2c1=O | -1 | -2
CC1SC2(OC1=O)C1CC3CC(C1)CC2C3 (stereo not given) | 15 | 6
Cc1cc(C)n(CCCC(=O)N2CCNCC2C(=O)N2CCOCC2)n1 (stereo not given) | 9 | 4
CC1(C(=O)Nc2ccccc2F)CCN1C(=O)CCc1ccc(Cl)cc1Cl (stereo not given) | 4 | 3
Cc1ccc(Cl)cc1N1CCN(C(=O)CCc2c(C)nc3nc(N)nn3c2C)CC1 | 9 | 8
O=C(/C=C/c1ccc(Cl)s1)NCc1ccc(S(=O)(=O)N2CCOCC2)cc1 | 8 | 7

Part of the list above, with two lines to a compound:
Results follow in this order: NPYLR7 agonist, NPYLR7 agonist max-min
- CC(NS(=O)(=O)c1ccc2c(c1)CCC2)(C(=O)O)C1CC1 (stereo not given)
  1, 1
- Cc1cc(C)n(CCCC(=O)N2CCNCC2C(=O)N2CCOCC2)n1 (stereo not given)
  9, 4

Later entries.
SMILES | NPYLR7 agonist | NPYLR7 agonist max-min
O=C(CC1Cc2ccccc2C1)N1CCC(n2c(Cc3ccccc3)nc3ccccc32)CC1 | 7 | 18
O=C(CCc1ccccc1)N1CCCC(OCc2cccc(OC(F)(F)F)c2)C1 (stereo not given) | -4 | 2
O=C(c1ccc(C2CCNC2)cc1)N(Cc1ccccc1)CC1CCC1 (stereo not given) | 3 | -2
CCc1ccsc1C(=O)OCCn1ncc(C(N)=O)c1N | -3 | -7
C=CCSc1nnc2c(n1)OC(/C=C/c1ccco1)Nc1ccc(Br)cc1-2 (stereo not given) | 2 | -2
O=C(NCCc1ccccn1)c1csc(COc2ccc(F)cc2F)n1 | 2 | -1
CCS(=O)(=O)NCCN1CCc2ccc(F)cc2C1C (stereo not given) | 3&13 | 0&11
CCCCSC1=C(C#N)C(=O)NC(C)S1 (stereo not given) | 6 | 0
CC(C)(C)c1cc(CN2CCCC2c2ccccn2)[nH]n1 (stereo not given) | 5 | 1
CCN1C(=O)N(CC)C2C1N(C(C)=O)C(=O)N2C(C)=O (stereo not given) | 0 | -1
Cc1c(C)n2c3c(=O)n(CCc4ccccc4)c(=O)n(C)c3nc2n1C | 19 | 6
COc1cc(/C=C2/SC(N)=NC2=O)ccc1OCc1ccc([N+](=O)[O-])cc1 | -15 | -18
CCC(C)NC(=O)CC12CC3CC(C1)CC(CC(=O)NC(C)CC)(C3)C2 (stereo not given) | 3 | 46
COc1ccccc1C(=O)Nc1sc2c(c1C(=O)NCc1ccco1)CCCC2 | -3 | -10
O=C(c1cc(Cl)cc(Cl)c1)N1CCN(CCCOC(c2ccc(Cl)cc2)c2ccc(Cl)cc2)CC1 | 1 | -1
CN1C[C@H]2COc3ccccc3[C@H]2N(S(=O)(=O)c2ccccc2)CCC1=O | 2 | 12
CN1CC2(CCCN(C(=O)c3ccc4c(c3)OCCN4C)CC2)OC1=O (stereo not given) | 13 | 10
Cc1ccc(-c2cc(CN)no2)cc1 | 4 | 4
COCCN(CC1CCN(Cc2ccccc2F)CC1)C(=O)c1scc2c1CCCC2 | 8 | 0
COc1cccc(CC2(CO)CCN(Cc3cccnc3)CC2)c1 | 7 | 12
CNC(=O)[C@H]1CN(C(=O)OCC(C)(C)C)[C@]2(C)C(=O)N(CCOC)c3ccccc3[C@H]12 | 5 | 14
O=C(O)C1C2CC3C1C(=O)Oc1ccccc1C1c4sc(=O)[nH]c4SC2C13 (stereo not given) | 15 | 6
Cc1c(-c2nc(-c3ccccc3F)cs2)nnn1-c1cccc(F)c1 | -1 | -4
OCn1c(=S)sc2ccccc21 | 2 | 4
COc1ccc(CN2CCN(C(=O)c3nc4ccccc4s3)CC2=O)cc1 | 1 | -2
Cc1c(C(=O)NCc2ccc(F)cc2)sc(=O)n1Cc1ccc(C(F)(F)F)o1 | 13 | 8
O=c1[nH]cnc2nc[nH]c12 | -7 | -13
CC(C)N1C(=O)C(Cl)=C(Nc2ccc(Br)cc2)C1=O | 15 | 3
COc1cccc(C(=O)N2CCC(C(=O)NC3CCC(N(Cc4cccc(C)c4)C(=O)c4ccc(F)cc4)CC3)CC2)c1 (stereo not given) | 19 | 17
COCCNC(=O)C(CC(C)C)N1C(=O)CSC1c1cc(OC)ccc1OC (stereo not given) | 31 | 27
O=C(COn1nnc2ccc(Cl)cc21)Nc1ccc(F)cc1F | 11 | 2
Cc1ccc(Nc2cc(C)nc(N3CCN(C(=O)C4CCCC4)CC3)n2)cc1 | 11 | 0
Cc1cc(CN(C)CC2(O)CCCN(Cc3ccc(C(C)C)cc3)C2=O)no1 (stereo not given) | 7 | 6
O=C(NCC1CCCCN1S(=O)(=O)c1cccc2nsnc12)Nc1ccccc1 (stereo not given) | -6 | -7
CNC(=O)[C@@H]1C[C@H](N)CN1C(=O)CN(C)Cc1ccncc1 | -5 | -7
C=C(C)COc1ccc(-c2onc(C)c2-c2ccccc2)c(O)c1 | 2 | -2
COc1ccc(F)cc1-c1ccnc2n[nH]c(C3CCNCC3)c12 | 29 | 22
Cc1cccc(C)c1OCC(C)N (stereo not given) | -3&1&-1&3 | -11&-3&-5&-25
CSc1cccc(CN2CCCC(CNC(=O)c3cccs3)C2)c1 (stereo not given) | 4&13 | 3&5
CC(C)n1cc(CN2CCCN(C(=O)CC3CCCO3)CC2)cn1 (stereo not given) | 3 | 2
CN(C)CCNC(=O)[C@@]1(OCc2cccc(Cl)c2)CC(OCc2ccc(C(F)(F)F)cc2)[C@H](O)[C@H](O)C1 (stereo not given in full) | 20 | 7
CCCC(C(=O)NNc1nc2ccccc2c(=O)n1CC)c1ccccc1 (stereo not given) | 1 | -1
NCc1cn(CC2CCN(C(=O)Nc3ccccc3-c3ccccc3)CC2)nn1 | 0 | -5
S=C(NCCN1CCOCC1)N1CCN(Cc2ccc3c(c2)OCO3)CC1 | 1 | 0
CCOc1cc(C2C(C(=O)OC)=C(C)NC3=C2C(=O)CC(c2ccc(Cl)cc2)C3)cc(Br)c1O (stereo not given) | -4 | -7
COCCN(Cc1ccc(OC)c(OS(=O)(=O)c2ccc(F)cc2)c1)C(=O)CC(C)C | 16 | 15
CCn1c(SCC(=O)Nc2ccc(OC(F)(F)F)cc2)nc2c(c1=O)SC(C)C2 (stereo not given) | 0 | -3
Fc1ccc(F)c2c1CCN(Cc1cc3n(n1)CCCNC3)C2 | -5 | -10
Cc1ccccc1C(=O)N1CCC(C(NC(=O)C2CC2)C(=O)N2CCCC2)CC1 (stereo not given) | 31 | 27
COc1ccc(OC)c(S(=O)(=O)NC(=O)C2(C)CCN2C(=O)Cc2ccccc2Cl)c1 (stereo not given) | 8 | 4

Remaining list, next part.
SMILES | NPYLR7 agonist | NPYLR7 agonist max-min
CC1CN(CCOc2ccc(-c3[nH]ncc3-c3ccccc3)c(O)c2)CC(C)O1 (stereo not given) | 2 | 2
N#Cc1cccc(OC2CC3CCC(C2)N3C(=O)c2ccc(CSCc3ccco3)cc2)c1 (stereo not given) | 3 | 14
C#CCn1c(O)c(N=NC(=O)CNC(=O)/C=C/c2ccc(OC)cc2)c2ccccc21 | -3 | -9
O=S(=O)(Nc1cc(-n2cnnn2)ccc1F)c1ccc(F)c(Cl)c1 | 10 | 6
Cc1cccnc1CC(C)NC(=O)c1nc(C(C)C)cs1 (stereo not given) | 12 | 7
O=C(c1cnccn1)N(CC1CCN(C2Cc3ccccc3C2)CC1)CC1CCCO1 (stereo not given) | 14 | 11
CCCCCCC(=O)N1CCN(C(=O)CCCSc2nnc(-c3ccc(Cl)cc3)n2-c2ccccc2)CC1C (stereo not given) | 15 | 17
CC(Nc1cncc(-n2cccn2)n1)c1cccc(OCc2ccccn2)c1 (stereo not given) | -1 | 15
Cc1ccccc1-c1cc2nc(NCCN3CCNC3=O)n(C)c(=O)c2s1 | 5 | 1
CC(=O)c1cc(-c2ccccc2)[nH]c1NC(=O)c1ccccc1 | -8 | -7

Single records, as listed above:
Record of CNC(=O)[C@@H]1C[C@H](N)CN1C(=O)CN(C)Cc1ccncc1 = NPYLR7 agonist = -5; NPYLR7 agonist max-min = -7
Record of COCCCN(CC(=O)N(CCc1c[nH]c2ccccc12)Cc1ccc(C(F)(F)F)cc1)C(=O)CCc1ccccc1 = NPYLR7 agonist = 2; NPYLR7 agonist max-min = 8

Gathered by group, the entries above containing a cyano group
SMILES | NPYLR7 agonist | NPYLR7 agonist max-min
CCCCSC1=C(C#N)C(=O)NC(C)S1 (stereo not given) | 6 | 0
N#Cc1cccc(OC2CC3CCC(C2)N3C(=O)c2ccc(CSCc3ccco3)cc2)c1 (stereo not given) | 3 | 14

(list continues)
SMILES | NPYLR7 agonist | NPYLR7 agonist max-min
COc1ccc(Cl)c2sc(NCCCN(C)C)nc12 | 1 | -2
Cc1cc(C)cc(-n2c(C)c(C)n3c4c(=O)n(CCN5CCOCC5)c(=O)n(C)c4nc23)c1 | 5 | 0
COc1cccc2c1OCCCN(C(=O)c1ccc(-n3cc(NC(=O)c4cccnc4)cn3)cc1)C2 | 1 | -2
COc1ccccc1C1CCCN1C(=O)CC1(c2ccccc2Cl)CC(=O)N(C2CCCC2)C1=O (stereo not given) | -4 | -9
Nc1c2c(nc3c1CCC3)CCCC2 | 15&-7 | 12&-16
CN(CCO)c1ccc(-c2nc(Cc3ccc(F)cc3)no2)cn1 | 3 | -2
O=C(CSc1nc(=O)n(CCN2CCOCC2)c2c1CCCC2)Nc1nc2ccccc2s1 | -1 | 7
Cc1cc(S(=O)(=O)Nc2cc(-c3ccncc3)nn2C)ccc1Br | -7 | -8
O=C(N=C1N=C2C=CC(Cl)=CN2Cc2ccccc21)C12CCC(CC1)C2 | 2&2 | -1&17
O=C(Cn1ncc(Cl)c(Cl)c1=O)N1N=C(c2ccco2)CC1c1cccs1 (stereo not given) | 11 | 8
CCC1SC(c2ccc(C(C)(C)C)cc2)N(CCN2CCN(C(=O)C(C)C)CC2)C1=O (stereo not given) | 7 | 24
CC(=O)c1cc(CC(=O)NCc2cccnc2N2CCOCC2)cs1 | 2 | -4
O=C(CSCc1ccccc1Cl)NCc1ccc2c(c1)OCO2 | 10 | 6
CCOC(=O)CCCCCC(=O)Nc1cc(-c2onc3c2CCCC3)ccc1Cl | 0 | -1
COc1ccc(S(=O)(=O)c2cnc3cc(OC)c(OC)cc3c2N2CCN(C)CC2)cc1 | 2 | 0
COCCC(C)NC(=O)N1CCOCC1c1ccc(C)o1 (stereo not given) | -4 | -6
COCc1ccc(CN2CCCC(Nc3ccc4c(c3)OCO4)C2)o1 (stereo not given) | 9 | 6
O=c1sc2ccccc2c(N2CCCC2)c1[N+](=O)[O-] | -1 | -3
Cc1ccc(C)c(Cn2c(=O)c3c(nc4n(Cc5ccco5)c(C)cn34)n(C)c2=O)c1 | 8 | 8
CCCc1nc(CN(CC)C(=O)c2cc(F)c(F)cc2Cl)no1 | 6 | 4

Some of these compounds in order of molar mass, rising.
SMILES | NPYLR7 agonist | NPYLR7 agonist max-min
O=c1sc2ccccc2c(N2CCCC2)c1[N+](=O)[O-] | -1 | -3
CC(=O)c1cc(CC(=O)NCc2cccnc2N2CCOCC2)cs1 | 2 | -4
COc1ccc(S(=O)(=O)c2cnc3cc(OC)c(OC)cc3c2N2CCN(C)CC2)cc1 | 2 | 0

Other results follow.
SMILES | NPYLR7 agonist | NPYLR7 agonist max-min
CC1(C)CC(=NOC(=O)c2ccccc2)CC(C)(C)N1O | -1 | -1
CCCN(Cc1cc(NC(=O)C(C)C)ccc1N(C)C)C(=O)c1cccc(F)c1 | 7 | 9
Cc1ccc(C=CC(=O)OCC(=O)c2cc(C)n(CC3CCCO3)c2C)o1 (stereo not given) | 0 | -2
O=C(Cc1ccccc1)N(Cc1cccnc1)c1nc2ccc(Cl)cc2s1 | -7 | -1
Cc1cc(C(=O)n2nccc2N)c(C)n1C1CC1 | 18 | 22
CCCCCCCCC(=O)Nc1c(-c2ccc(C)cc2)nc2cc(C)ccn12 | -2 | 4
Cc1ccc(C)c(NC(=O)C(C)SCc2nc(-c3ccccc3)no2)c1 (stereo not given) | 3 | 2
c1cncc(NCCNC2CCC3(CCNCC3)CC2)c1 | 12 | 9

A portion of the library, so the mix of outcomes need not match the whole.
